High-throughput results (PubChem BioAssay)
Vaccinia mCherry: qHTS for Stage-Specific Inhibitors of Vaccinia Orthopoxvirus: mCherry Reporter Primary qHTS; Vaccinia virus mCherry reporter infection, fluorescence; about a quarter of the inactives have no number; Potency, µM (highest dose often 36.5 µM), without a hit: at the top dose activity change, negative = inhibition, most hits filed as inhibitors; 310,000 compounds, 0.63% hits; AID 720579, 2013; active = well fitted inhibition curve with a large enough effect; inconclusive = small, poorly fitted or top-dose-only effect; inactive = no such curve, though single readings can be large or run the other way; tested in A549 cells; also: nearly all actives have a fitted effect of over 35% in size; inactives centre near -10
Vaccinia Venus: qHTS for Stage-Specific Inhibitors of Vaccinia Orthopoxvirus: Venus Reporter Primary qHTS | Vaccinia virus Venus reporter expression, fluorescence | Potency, µM (titrated, usually from 36.5 µM), without a hit: at the top dose activity change, negative = inhibition, actives largely listed as inhibitors | 330,000 compounds, 0.46% hits | AID 720580, 2013; active means well fitted inhibition curve with a large enough effect; inconclusive means small, poorly fitted or top-dose-only effect; inactive means no such curve, though single readings can be large or run the other way; tested in A549 cells; also: nearly all actives have a fitted effect of over 30% in size; inactives centre near -10
* marks the source's active call; other numbers are inactive results; i = inactive; ? = inconclusive; . = no result given; & = joins results of further samples; [ ] = remark or other dose. % is scaled to controls: 0 for no effect and ±100 for the full control effect; potency is read from the fitted curve at half-maximal effect.

#1 Cc1ccc(NC(=O)C2Cc3ccccc3N2C(=O)c2ccccc2)cc1Cl (configuration not stated)
#2 CCCCNC(=O)c1nc(-c2cnccn2)oc1-c1ccc(Cl)cc1
#3 Oc1c(Cl)cc(Cl)c(Cl)c1CN1CCOCC1
#4 CC1CCCN(c2ncnc3c2cnn3-c2ccc(F)cc2)C1 (configuration not stated)
#5 CCCCC(=O)Nc1ccc(C)c(S(=O)(=O)N2CCCCCC2)c1
#6 C=CCn1c(-c2ccccc2OCC)n[nH]c1=S
#7 O=C(c1ccccc1)c1nn(-c2ccc(Cl)cc2)c(=O)cc1C(F)(F)F
#8 Cc1ccc(-n2ncc3c(=O)n(Cc4cccc(Cl)c4)cnc32)cc1C

compound no.,1,2,3,4,5,6,7,8
Vaccinia mCherry,-7.6%,-5.6%,i,7.3%,-10.7%,i,?,0.2%
Vaccinia Venus,-7.8%,1.2%,0.9%,0.5%,-15.7%,-1.5%,-15.7%,-8.0%

#9 COC(=O)[C@H]1Cc2cnoc2C[C@]1(C)C(=O)O
#10 Cc1cccc(OCCSc2nc3ccc(NC(=O)COc4ccccc4)cc3s2)c1
#11 COc1ccc(NC(=O)Nc2cccc(OCc3cc(=O)n4cccc(C)c4n3)c2)c(OC)c1
#12 Cc1nn(Cc2ccccc2Cl)c(C)c1NC(=O)C1C2CCC(O2)C1C(=O)O (configuration not stated)
#13 COc1ccc(CCn2c3c(c(=O)[nH]c2=S)CN(Cc2ccccc2)CN3)cc1OC
#14 CC(C)C[C@H](NC(=O)OC(C)(C)C)C(=O)N[C@@H](CO)[C@H](O)[C@@H]1C[C@@H]1C(=O)NC1CCCCC1
#15 O=C(CN1CCN(C(C(=O)Nc2ccc(F)cc2)c2ccccc2)CC1)NC1CC1 (configuration not stated)
#16 Cc1ccc(NC(=O)CN2C(=O)NC3(CCc4ccccc43)C2=O)cc1Cl (configuration not stated)

compound no.,9,10,11,12,13,14,15,16
Vaccinia mCherry,-1.0%,-25.9%,-19.4%,-12.4%,-25.5%,-5.3%,i,.
Vaccinia Venus,-7.5%,-13.4%,-13.6%,-14.5%,-17.9%,-14.3%,-1.6%,?

#17 CCN(CC(=O)NC(c1ccccc1)c1ccccc1)Cc1nc2ccccc2c(=O)[nH]1
#18 Cc1ccoc1C(=O)Nc1cccc(Oc2ccccc2)c1
#19 Cc1ccc(Cl)cc1S(=O)(=O)N1CCC(C(=O)NC2CCN(Cc3ccccc3)CC2)CC1
#20 CSc1ccc(NC(=O)Nc2cc(C)ccn2)cc1
#21 COc1ccc2nc3oc(C(=O)NCc4ccccc4OC)cc3cc2c1
#22 CCOc1ccc(N(CC(=O)NCc2ccc(F)cc2)C(=O)c2snc(C(N)=O)c2N)cc1
#23 CN(CC(=O)Nc1ccccc1C(F)(F)F)C(=O)Cc1ccccc1F
#24 CC(=O)N1CCc2c(sc3c2c(=O)n(CCc2ccccc2)c(=O)n3CC(=O)Nc2ccc(C)c(F)c2)C1

compound no.,17,18,19,20,21,22,23,24
Vaccinia mCherry,-18.9%[1.46 µM],-23.8%,-18.8%,-13.4%,-9.5%,-5.4%,i,-23.6%
Vaccinia Venus,?,-19.9%,-0.3%,-11.4%,2.9%,-2.8%,-14.4%,-26.2%

#25 O=C(Nc1ccc(OC(F)(F)F)cc1)C(NS(=O)(=O)c1cccc2nsnc12)c1ccccc1 (configuration not stated)
#26 Cc1cc2oc(C(=O)NC3CCS(=O)(=O)C3)c(C)c2cc1C (configuration not stated)
#27 CN1CCN(CCCc2c3c(cc4c2CCC4)CCC3)CC1
#28 CC(NC(=O)c1ccc2ccccc2n1)c1ccccc1 (configuration not stated)
#29 CN(C)CCCNc1nc(N)c([N+](=O)[O-])c(NCCO)n1
#30 O=C1CCCC2=C1C(c1cccc(O)c1)C1=C(N2)c2ccccc2C1=O (configuration not stated)
#31 O=C(NCc1ccncc1)C(=O)Nc1nccs1
#32 COc1ccc(N=NC2=C(O)CC(C)(C)CC2=O)cc1

compound no.,25,26,27,28,29,30,31,32
Vaccinia mCherry,-12.0%,.,-12.3%,i,-0.9%,-3.4%,i,-12.4%
Vaccinia Venus,-15.9%,-25.1%,-5.4%,-9.3%,-5.2%,-13.5%,-5.3%,-12.9%

#33 CN(CC(=O)NCCCN1CCOCC1)S(=O)(=O)c1ccc(Br)cc1
#34 CCCCNC(=O)CSc1nnc(-c2ccco2)n1C
#35 Cc1cnnc2ccc3c(no[n+]3[O-])c12
#36 CCC1(c2ccccc2)NC(=O)N(CC(=O)Nc2ccc(OC)nc2)C1=O (configuration not stated)
#37 Cc1nc2ccccc2c(=O)n1-c1ccc(F)c(NC(=O)c2cccs2)c1
#38 CC(C)CC1Nc2ccc(C(=O)NCCCOC(C)C)cc2NC1=O (configuration not stated)
#39 NC(=O)C1CCN(CC(=O)Nc2ccccc2Sc2ccccc2)CC1
#40 CNS(=O)(=O)c1cc(-c2nnc(Nc3ccc(NC(C)=O)cc3)c3ccccc23)ccc1C

compound no.,33,34,35,36,37,38,39,40
Vaccinia mCherry,.,-1.5%,-18.1%,-5.0%,-10.4%,-0.1%,-18.8%,-6.3%
Vaccinia Venus,-2.8%,9.2%,1.3%,12.8%,-4.8%,-13.4%,-9.3%,-0.9%

#41 CCOc1ccc(NC(=O)Cn2nc(CC)n3c(cc4sccc43)c2=O)cc1
#42 C=CCn1c(N2CCCCCC2)nc2c1c(=O)[nH]c(=O)n2C
#43 O=C(Cc1cc(=O)[nH]c(=O)[nH]1)NCc1ccc(Cl)cc1
#44 CCCCN(C(=O)CSc1n[nH]c(-c2ccc(C)cc2)n1)c1c(N)n(CCCC)c(=O)[nH]c1=O
#45 O=C(NCc1ccco1)/C(=C\c1ccco1)NC(=O)c1ccccc1Cl
#46 CS(=O)(=O)c1ccc(-c2ccc3c(c2)CC(CNC(=O)C2(N4CCOCC4)CCCCC2)O3)cc1 (configuration not stated)
#47 COc1cc(OC)c(NC(=O)N2CCOc3ccc(C)cc32)cc1Cl
#48 Fc1cccc(-c2nn[nH]n2)c1

compound no.,41,42,43,44,45,46,47,48
Vaccinia mCherry,0.2%,?,-14.9%,-13.0%,-3.8%,-14.5%,-20.7%,.
Vaccinia Venus,-6.9%,-14.9%,-6.0%,-0.3%,-1.9%,?,-10.5%,-5.0%

#49 CCc1cccc(CC)c1N1C(=O)C2=C(SCCCS2)C1=O
#50 Oc1ccc(Cl)cc1CN1CCOc2c(O)cc(-c3nc4ccccc4s3)cc2C1
#51 O=C(O)c1ccc(/C=N/Nc2ccc(C(F)(F)F)cn2)cc1
#52 CN(Cc1cn(C)nc1-c1ccccc1F)Cc1nccn1C
#53 Cn1cc(C=CC(=O)O)c2nccnc21
#54 CC1(C2CCC3(C)OC3C2)CO1 (configuration not stated)
#55 Cc1ccc(-n2nnnc2SCC(=O)NC2CCCc3ccccc32)cc1 (configuration not stated)
#56 OCCN1CCN(CCCN2c3ccccc3Sc3ccc(C(F)(F)F)cc32)CC1

compound no.,49,50,51,52,53,54,55,56
Vaccinia mCherry,-9.1%,-24.2%,-13.1%,-17.0%,-9.5%,5.4%,i,-14.9%&-16.4%
Vaccinia Venus,-13.4%,-10.5%,-11.7%,-3.8%,-6.6%,-2.5%,-9.7%,?

Filtered by structure, those above with an NH in an aromatic ring
#6 C=CCn1c(-c2ccccc2OCC)n[nH]c1=S
#13 COc1ccc(CCn2c3c(c(=O)[nH]c2=S)CN(Cc2ccccc2)CN3)cc1OC
#17 CCN(CC(=O)NC(c1ccccc1)c1ccccc1)Cc1nc2ccccc2c(=O)[nH]1
#42 C=CCn1c(N2CCCCCC2)nc2c1c(=O)[nH]c(=O)n2C
#43 O=C(Cc1cc(=O)[nH]c(=O)[nH]1)NCc1ccc(Cl)cc1
#44 CCCCN(C(=O)CSc1n[nH]c(-c2ccc(C)cc2)n1)c1c(N)n(CCCC)c(=O)[nH]c1=O
#48 Fc1cccc(-c2nn[nH]n2)c1

compound no.,6,13,17,42,43,44,48
Vaccinia mCherry,i,-25.5%,-18.9%[1.46 µM],?,-14.9%,-13.0%,.
Vaccinia Venus,-1.5%,-17.9%,?,-14.9%,-6.0%,-0.3%,-5.0%

Next part:
#57 COc1ccc(CNC(=S)NC(C)CCc2ccccc2)cc1 (configuration not stated)
#58 C=CCn1c(-c2cc(-c3ccc(C)cc3)nc3ccccc23)n[nH]c1=S
#59 COc1ccc(S(=O)(=O)N2CCCC(C(=O)NCCC(C)C)C2)cc1 (configuration not stated)
#60 COc1cc(OC)cc(-c2c(C#Cc3ccsc3)c3cc(-c4ccc(C(N)=O)cc4)ccc3n2C)c1
#61 CCOC(=O)c1cc(-c2ccc(C)cc2)n(CCC(=O)NCc2ccccc2)c1C
#62 CC(=O)Nc1ccc(S(=O)(=O)NC2=C(N3CCN(c4ccc(F)cc4)CC3)C(=O)c3ccccc3C2=O)cc1
#63 CCc1nc(SCC(=O)Nc2nccs2)c2oc3ccccc3c2n1
#64 COc1cccc(CNC(=O)C2CCCN(c3ncnc4onc(-c5ccc(F)cc5)c34)C2)c1 (configuration not stated)

compound no.,57,58,59,60,61,62,63,64
Vaccinia mCherry,-7.7%,i,-11.4%,-7.3%,0.6%,?,1.2%,-11.4%
Vaccinia Venus,-10.6%,-18.1%,-6.0%,-19.6%,-14.3%,?,-4.4%,-7.3%

Complete entries, quoted from the list:
`CCOC(=O)c1cc(-c2ccc(C)cc2)n(CCC(=O)NCc2ccccc2)c1C` reads Vaccinia mCherry: 0.6%; Vaccinia Venus: -14.3%
`COc1cc(OC)cc(-c2c(C#Cc3ccsc3)c3cc(-c4ccc(C(N)=O)cc4)ccc3n2C)c1` reads Vaccinia mCherry: -7.3%; Vaccinia Venus: -19.6%

The list goes on:
#65 COc1ccc(-c2nc3ccc(Cl)cn3c2Cc2cccc(F)c2)cc1OC
#66 CC(=O)NCCc1nc2cc(NC(=O)c3cccs3)ccc2n1C
#67 COC(=O)c1cnc(Nc2cccc(C(F)(F)F)c2)c([N+](=O)[O-])c1
#68 COc1ccc(Cc2nnc(SCC(=O)Nc3ccc(N4CCOCC4)cc3)o2)cc1
#69 Cc1c(NC(=O)/C(C#N)=C/c2c(Oc3ccccc3)nc3ccccn3c2=O)c(=O)n(-c2ccccc2)n1C
#70 O=C1CCC/C1=c1\s/c(=C\c2cccnc2)c(=O)n1-c1ccccc1
#71 COc1ccc(Cl)cc1NC(=O)c1ccc(CN2C(=O)CCn3nc(C)cc32)cc1
#72 O=C(c1cccs1)N1C[C@@H](O)[C@H](n2cc(C3CC3)nn2)C[C@@H]1c1ccccc1

compound no.,65,66,67,68,69,70,71,72
Vaccinia mCherry,2.7%,-14.8%,?,-18.4%,-19.4%,-9.2%,-16.4%,6.8%
Vaccinia Venus,9.0%,-3.3%,20.9%,5.1%,-8.2%,-6.2%,-16.5%,-12.8%

#73 COc1ccc(C(=O)Nc2cc3c4c(c2)C(C)C(=O)N4CCC3)c(OC)c1 (configuration not stated)
#74 O=c1[nH]c2cc3c(cc2cc1CN(CCCO)C(=S)NCc1ccco1)OCO3
#75 Cc1cccc(C(=O)NCC(=O)OCC(=O)N2CCCCC2)c1
#76 COc1ccc(-c2nnc(SC(C)C(=O)Nc3cccc(Cl)c3)o2)cc1 (configuration not stated)
#77 COc1ccccc1C/C(N)=N/OC(=O)c1cccc([N+](=O)[O-])c1C
#78 CC(=O)c1c(C)[nH]c(C(=O)OC2CCCCC2=O)c1C (configuration not stated)
#79 Cc1cccc(NC(=O)CN(C)C(=O)c2ccc3ccccc3n2)c1C
#80 CC(C)CC(N)c1csc(Nc2cc(Oc3ccccc3)ncn2)n1 (configuration not stated)

compound no.,73,74,75,76,77,78,79,80
Vaccinia mCherry,-12.4%,-5.4%,-1.2%,-21.0%,-25.2%,-16.4%,-11.6%,?
Vaccinia Venus,-11.5%,-17.6%,-3.5%,-16.5%,-18.0%,-11.3%,0.0%,?

#81 Cc1ccc(C(=O)COC(=O)CCC(=O)Nc2ccc(Oc3ccccc3)cc2)cc1
#82 CC1=C(C(=O)N(C(C)C)C(C)C)CC(CC(=O)NC2CC2)C(=O)N1Cc1ccc(C(C)(C)C)cc1 (configuration not stated)
#83 Cc1ccc(-c2cc(-c3ccccc3)cc(-c3ccccc3)[n+]2-c2ccccc2C(=O)O)cc1
#84 CC(C)CCn1cnc2c1c(=O)n(CC(=O)NC(N)=O)c(=O)n2Cc1ccccc1
#85 Cc1cccc(C(C)C)c1NC(=O)C1CCN(S(=O)(=O)c2ccccc2)CC1
#86 Cc1cccc(CC(=O)c2c[nH]c3ccccc23)c1
#87 Cc1ccc2c(c1)nnn2C1CCN(C(=O)c2ccccc2F)CC1
#88 CC(=O)Nc1ccc(S(=O)(=O)N2CC(=O)NC(=O)C2)cc1

compound no.,81,82,83,84,85,86,87,88
Vaccinia mCherry,-10.6%,-8.8%,-2.7%,i,-24.1%,-26.0%,-3.5%,i
Vaccinia Venus,4.8%,-13.5%,-6.2%,-5.1%,-18.2%,-13.9%,-16.6%,-14.3%
